Sa RN4220 lethal – S. aureus RN4220 growth inhibition; 330,000 compounds, 0.33% hits; inhibition, % (no concentration beside the values); OD600, 16 h;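 active = z-score of -3 or lower and OD600 up to 0.18 on both plates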;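 note: plate controls were untreated cells for no effect and reference antibiotic for full effect; stock transfer was 100 nL into about 80 µL; one replicate is shown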
Mtb hypoxia rep – inhibitors of hypoxia-regulated fluorescent reporter in Mycobacterium tuberculosis; M. tuberculosis hypoxia-regulated fluorescent reporter, fluorescence; fluorescence inhibition, % (no concentration beside the values); 300,000 compounds, 0.1% hits;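 active = 35 to 45% if threefold the growth effect, above 45% if 1.5-fold the growth effect; inactive = the rest, general growth blockers included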;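 note: wells of about 50 µL received 100 nL stock; 0% = vehicle wells and 100% = reference inhibitor wells; whole bacteria with a GFP reporter of the hypoxia response; strong numbers were not always called active; many hits fall short of the cut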
Bead autofluor – counter-screen for toxin protease inhibitors: compound fluorescence | 360,000 compounds, 3.1% hits | compound autofluorescence counterscreen, microsphere flow cytometry; hits give high values | fluorescence intensity (no concentration beside the values);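 active = at least 3 SD above the mean of all compounds, about 16000 in these data; inconclusive = too few beads counted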;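 note: 100 nL of 1 mM stock went into each well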
BJeLR lethal – kills HRASV12-expressing BJeLR cells; BJeLR (HRASV12) viability, CellTiter-Glo ATP luminescence, 48 h; reference of the scale not given here; inhibition, % (no concentration beside the values); 300,000 compounds, 0.17% hits;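 active = replicate mean above 50%; inconclusive = above 50% but judged a plate artefact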;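 note: 50 nL library stock added to about 25 µL; numbers are from one replicate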
PrP UTR inh – suppresses PrP 5' UTR mRNA reporter expression; cell-based PrP 5' UTR mRNA reporter, plate reader; inhibition, % (concentration not given with the values); 340,000 compounds, 0.35% hits;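 active = every replicate at 50% or more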;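 note: 0 = median of the neutral control wells; tested in H4 reporter cells; numbers are from one replicate; inactives centre near -14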
ugtP null kill – growth inhibition of S. aureus ugtP deletion strain; growth inhibition, % (test concentration not listed); 330,000 compounds, 0.54% hits; S. aureus RN4220 ugtP deletion, OD600 growth, 16 h; some inactives read as strong as hits;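 active = z-score under -3 and OD600 up to 0.15 on both plates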;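 note: plate controls were untreated wells for no effect and antibiotic for full effect; wells of about 80 µL received 100 nL stock; the first replicate is given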
Mtb hypoxia rep growth – further read-out of Mtb hypoxia rep, marked with its call; growth inhibition, %; measured here: M. tuberculosis growth (absorbance);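 0% = vehicle and 100% = reference antibiotic; read after six days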
The depositor's hits bear a star; ? = inconclusive; nt = no result given; & = joins results of further samples; ! = repeats disagree.

Results follow in this order: Sa RN4220 lethal	Mtb hypoxia rep	Mtb hypoxia rep growth	Bead autofluor	BJeLR lethal	PrP UTR inh	ugtP null kill
- Cc1c(-n2c(-c3ccccc3)nc3ccccc3c2=O)c(=O)n(-c2ccccc2)n1C
  2.5	-8.0	-4.6	2229	-1.9	-17.8	1.9
- O=C(COc1cccc2cccnc12)N/N=C1\SCC(=O)N1Cc1ccccc1
  nt	nt	nt	3530	-10.6	-20.2	nt
- O=C(OCC(=O)N1CCOCC1)c1ccccc1Br
  2.3	8.1	-2.3	3985	-3.5	-32.2	0.5
- COc1ccc(OC)c(NC(=S)NCCCN2CCOCC2)c1
  0.8	-4.1	2.7	2449	4.2	-28.0	1.4
- Cc1ccn2c(C(=O)NN=Cc3cccs3)c(C)nc2c1
  0.0	6.8	10.2	nt	nt	nt	-3.5
- CN(C)c1cc[n+](CC(=O)Nc2ccc(OC(F)F)cc2)cc1
  7.8	5.3	1.5	4241	8.7	-22.8	1.1
- O=S(=O)(c1ccccc1)c1nc(NCc2cccnc2)sc1Cl
  6.0	-6.9	9.4	4758	2.7	-15.0	4.4
- Cc1ccc(-n2c(Cc3cccn3C)nnc2SCC(=O)Nc2cc(C)on2)cc1
  0.9	-1.7	13.5	10362	-6.9	-17.5	-3.8
- CS(=O)(=O)c1ccc(C(=O)NC2CCOC2=O)cc1 (stereo not given)
  4.4	-0.8	6.7	21657*	2.8	-4.4	4.5
- O=C(CCN1C(=O)[C@@H]2Cc3ccccc3CN2C1=O)Nc1cccc(F)c1
  1.6	-0.5	-2.7	6191	7.4	-25.8	1.9
- CC(C)N(Cc1ccccc1)C(=S)Nc1ccccc1F
  0.1	-0.6	1.6	4278	-8.9	nt	0.1
- Cc1ccc(-n2ncc3c(SCc4cccc(C)c4)ncnc32)cc1
  -0.9	2.5	6.5	2537	-14.2	-29.6	78.7
- O=C(CSc1ccc([N+](=O)[O-])cn1)Nc1nccs1
  10.6	10.5	4.4	5121	-2.4	-2.5	-4.5
- CCN(CC)C(=O)c1ccc(-c2ccccc2)cc1
  1.3	3.2	3.2	2081	6.7	-34.3	-3.4
- CC(=O)Nc1cc2cc(NS(=O)(=O)c3ccc(C)cc3)ccc2oc1=O
  0.8	-2.0	-2.6	3521	4.2	2.6	-3.9

(cont.)
Results follow in this order: Sa RN4220 lethal	Mtb hypoxia rep	Mtb hypoxia rep growth	Bead autofluor	BJeLR lethal	PrP UTR inh	ugtP null kill
- CCn1c(=O)c(=O)[nH]c2cc(C(=O)N3CCN(Cc4ccc5c(c4)OCO5)CC3)ccc21
  1.2	0.9	1.5	4171	2.8	-15.5	0.6
- CC1CCN(C(=O)COC(=O)/C=C/c2ccc([N+](=O)[O-])cc2)CC1
  8.3	11.1	4.7	3945	nt	0.0	8.0
- C/C(N)=C(/C#N)C(=O)CSc1nnc(Nc2cccc(C)c2)s1
  1.8&5.9	-6.6&13.1	14.4&6.5	17498*!	9.4	-47.2	-13.3&-7.9
- COc1ccc(C(C)=O)cc1COC(=O)c1c(C)noc1C
  5.7	7.2	10.7	4017	12.4	-11.3	15.0
- Cc1cc(C)cc(CC2CC(=O)N(c3ccc([N+](=O)[O-])cc3)C2=O)c1 (stereo not given)
  2.3	-7.3	-5.0	3026	-3.3	-20.0	2.7
- O=C(NCC1CCCCC1)C12CN(Cc3ccccc3)CC1C(c1cccc([N+](=O)[O-])c1)=NO2 (stereo not given)
  -0.8	13.9	11.2	3668	-3.0	-15.9	0.7
- Oc1cccc(C(O)CNCc2ccc(-c3ccccc3)cc2)c1 (stereo not given)
  -5.0	13.2	7.8	2449	-6.1	-16.2	-3.3
- CC1(C)CC(=O)c2cc(OCC(=O)N3CCCCCC3)ccc2O1
  -0.1	5.8	5.0	14619	4.1	-23.0	1.6
- CC(=N\Nc1ccccc1)/C(=N/O)C(=O)Nc1ccccc1
  nt	nt	nt	2857	16.8	-33.9	nt
- COc1cccc(NC(=S)N(Cc2ccc(C)cc2)Cc2ccccn2)c1
  2.7	-6.8	7.1	4547	1.7	-16.4	1.5
- Cc1cc(C)n2nc(C(=O)N3CCN(Cc4ccc5c(c4)OCO5)CC3)nc2n1
  1.8	nt	nt	4211	-4.8	6.2	3.8
- O=[N+]([O-])c1cc([As](=O)(O)c2ccc(O)c([N+](=O)[O-])c2)ccc1O
  5.5	13.1	4.1	4898	1.2	-14.9	8.8
- Cc1sc2nc(CSCC(=O)Nc3cc(F)ccc3F)[nH]c(=O)c2c1C
  6.0	3.0	3.3	?	nt	0.5	2.2
- O=C(Cc1sc(Nc2ccccc2)nc1-c1ccccc1)NCc1ccccc1
  -3.2	5.3	1.4	2014	5.1	-39.0	-3.2
- CCOc1ccccc1NC(=O)CCCNC(=O)Cn1cnc2sc(C)c(C)c2c1=O
  1.7	-7.3	-5.3	5380	4.1	-14.0	2.9

New compounds follow
Results follow in this order: Sa RN4220 lethal	Mtb hypoxia rep	Mtb hypoxia rep growth	Bead autofluor	BJeLR lethal	PrP UTR inh	ugtP null kill
- COc1cc(CNCCc2ccc(S(N)(=O)=O)cc2)ccc1OCC(=O)NC1CCCCC1
  7.8	6.5	2.8	11536	-1.0	-17.1	4.8
- Cc1cc2cc3c(cc2nc1SCC(=O)Nc1c(C)cccc1C)CCC3
  7.1	-4.9	9.6	12358	-8.3	-12.3	-2.8
- COc1ccccc1CNC(=O)CCC(=O)N1CCOc2ccc(Cl)cc21
  3.5	-8.5	1.2	5976	-9.3	-11.3	-2.4
- CCc1ccc(-n2c(O)cnc2Nc2nc(C)cc(C)n2)cc1
  4.2	0.8	7.5	4912	-6.2	-9.3	4.3
- CCOC(=O)N1CCN(C(=O)Cc2ccsc2)CC1
  2.2	nt	nt	3271	-2.3	-20.0	4.2
- CS(=O)(=O)N(CC(=O)Nc1ccccc1)Cc1ccc(Cl)cc1
  0.4	0.5	-1.7	11059	-3.2	-14.3	5.1
- Cc1ccc(N2C(=O)c3ccc(C(=O)N4CCN(c5ccc(C)c(C)c5)CC4)cc3C2=O)cc1
  7.9	14.9	2.0	3976	-0.7	-15.7	-60.2
- CC(C)Oc1ccc(CNS(=O)(=O)c2csc(C(N)=O)c2)cc1
  2.4	13.9	10.4	4036	12.0	4.9	10.7
- COc1ccc(C=NNC(=O)c2cccc(NC(=O)c3ccccc3)c2)c(C(=O)O)c1OC
  -0.2	2.3	-2.2	nt	nt	nt	1.9
- O=C(COc1ccc(S(=O)(=O)N2CCCC2)cc1Cl)NC1CC1
  4.1	7.0	14.5	24369*	-5.2	-40.7	0.8
- COc1cc(NC(=O)c2ccccc2)c(OC)cc1NC(=O)CN1CCOCC1
  -6.8	7.5	10.4	3091	-1.1	-12.6	-12.0
- COCCCn1c(SCC(=O)N2CC(=O)Nc3ccccc32)nnc1-c1ccoc1C
  -2.4	nt	nt	4920	10.4	-22.2	-3.5
- O=C(CNC(=S)N(Cc1ccccc1Cl)C1CCCC1)NCCN1CCOCC1
  4.5	0.6	15.5	4067	3.1	-3.4	2.4
- Cc1cc(=O)n2nc(N3CCC(C(=O)NC4CCCc5ccccc54)CC3)sc2n1 (stereo not given)
  -4.9	-3.1	-0.4	2965	nt	4.4	4.4
- O=c1c2c3c(sc2nc2n1CCCC2)CCCCC3
  7.5	14.4	8.5	2952	-2.9	-51.0	6.1

(continued)
| SMILES | Sa RN4220 lethal | Mtb hypoxia rep | Mtb hypoxia rep growth | Bead autofluor | BJeLR lethal | PrP UTR inh | ugtP null kill |
| --- | --- | --- | --- | --- | --- | --- | --- |
| O=C(Cc1ccc(NC(=O)C2CCN(C(=O)C3CC3)CC2)cc1)Nc1cccc(C(=O)N2CCCC2)c1 | 1.5 | 2.5 | 9.4 | 3964 | nt | -19.3 | 2.8 |
| C[C@H](NC(=O)c1nc[nH]c1C(=O)N1CCc2ccccc2C1)C(=O)OC(C)(C)C | nt | nt | nt | 3938 | -8.2 | -9.9 | nt |
| COCCOC(=O)c1c(N)n(Cc2ccco2)c2nc3ccccc3nc12 | -5.7 | nt | nt | 6480 | 0.9 | 2.9 | 3.7 |
| O=C(CN1C(=O)NC2(CCCCCCC2)C1=O)Nc1c(Cl)cccc1Cl | -0.2 | 6.4 | 2.0 | 8222 | nt | -19.4 | 3.4 |
| CC1CC2c3cccc(C(=O)O)c3C(=O)N2c2ccc(Cl)cc21 (stereo not given) | nt | nt | nt | 3926 | 0.9 | -11.2 | nt |
| Cc1nnc(NC(=O)CSc2nc(N)c(NC(=O)c3cccs3)c(=O)[nH]2)s1 | 3.5 | 13.3 | 4.5 | 4040 | 3.0 | -23.1 | 4.7 |
| CC(=O)c1cccc(NC(=O)CN(C)S(=O)(=O)c2ccccc2)c1 | 5.1 | 14.1 | 1.5 | 4742 | 7.5 | -32.5 | 2.4 |
| Cc1cccc(N2C(=O)C(O)=C(C(=O)c3cccs3)C2c2ccc(F)cc2)n1 (stereo not given) | -2.6 | 11.9 | 6.7 | 2582 | 2.5 | -28.0 | 6.3 |
| CCOc1ccc(C(C)C)cc1S(=O)(=O)n1nc(C)cc1C | 9.9 | nt | nt | 2524 | 6.0 | -12.2 | -4.3 |
| CCn1nc(C(=O)Nc2ccc(C)c(C)c2)c(Cl)c1Cl | -2.7 | 4.9 | -1.2 | 3235 | 1.0 | -33.7 | 12.1 |
| CCC(C)NC(=O)C1CC(c2ccc(OC)cc2)=NO1 (stereo not given) | 1.4 | 7.6 | 14.4 | 20670* | -12.8 | -15.4 | 3.7 |
| CC(CCc1ccccc1)NC(=O)CCNC(=O)c1ccccc1Cl (stereo not given) | 3.0 | 5.2 | 3.0 | nt | nt | -19.8 | 3.3 |
| Cc1ccc2sc(C)[n+](CCC(C)S(=O)(=O)[O-])c2c1 (stereo not given) | nt | nt | nt | 7323 | -19.2 | -4.7 | nt |
| CC1(C)CN(c2ccsc2C(=O)O)C1=O | 7.4 | 2.5 | -2.5 | 3724 | -3.2 | -7.3 | 3.8 |
| CN(Cc1ccccc1)CC(O)COc1ccc(CNCCOc2cccnc2)cc1 (stereo not given) | 11.1 | 11.7 | 15.0 | 4164 | 8.3 | -6.7 | 2.7 |

Following part.
| SMILES | Sa RN4220 lethal | Mtb hypoxia rep | Mtb hypoxia rep growth | Bead autofluor | BJeLR lethal | PrP UTR inh | ugtP null kill |
| --- | --- | --- | --- | --- | --- | --- | --- |
| CCC1(O)CCCC2C3CCC4CC(=O)CCC4(C)C3C(=O)CC21C (stereo not given) | 3.5 | 0.7 | 7.5 | 3935 | nt | -8.5 | 0.5 |
| COCCN(CCOC)CC(O)COC(c1ccccc1)c1ccccc1 (stereo not given) | 1.8 | 8.5 | 8.4 | 4926 | 4.7 | -8.3 | 4.3 |
| CCN(CC)C(=O)C1CCCN(c2ccc([N+](=O)[O-])cc2/C=N/NC(=O)c2cccc([N+](=O)[O-])c2)C1 (stereo not given) | nt | nt | nt | 9352 | -4.5 | 1.7 | nt |
| Cc1ccc(-n2nc(C(=O)O)c3ccccc3c2=O)cc1C | 4.0 | 6.0 | 4.7 | 3401 | 13.4 | -40.0 | 4.6 |
| CN1CCN(C(=O)C2=CC(c3coc4ccccc4c3=O)CC(OCc3ccc(CO)cc3)O2)CC1 (stereo not given) | 5.2 | 2.7 | -9.9 | nt | nt | nt | 4.5 |
| Cc1nc(CC(=O)c2ccc(O)c(C)c2O)cs1 | 3.0 | 3.7 | -2.6 | 4288 | 9.2 | 3.6 | 4.6 |
| O=C(c1ccccc1)C(CN1CCCCC1)c1ccccc1 (stereo not given) | 8.9 | 6.5 | 6.1 | 2805 | nt | 19.2 | 11.3 |
| CC(=O)Oc1ccc2nc(/C=C/c3ccccc3)oc(=O)c2c1 | 3.3 | 0.2 | 11.9 | 3325 | -3.4 | -16.7 | -4.5 |

Quoted at random: 4 records from the list, in no set order.
| SMILES | Sa RN4220 lethal | Mtb hypoxia rep | Mtb hypoxia rep growth | Bead autofluor | BJeLR lethal | PrP UTR inh | ugtP null kill |
| --- | --- | --- | --- | --- | --- | --- | --- |
| CCC1(O)CCCC2C3CCC4CC(=O)CCC4(C)C3C(=O)CC21C (stereo not given) | 3.5 | 0.7 | 7.5 | 3935 | nt | -8.5 | 0.5 |
| CN1CCN(C(=O)C2=CC(c3coc4ccccc4c3=O)CC(OCc3ccc(CO)cc3)O2)CC1 (stereo not given) | 5.2 | 2.7 | -9.9 | nt | nt | nt | 4.5 |
| Cc1ccc(-n2nc(C(=O)O)c3ccccc3c2=O)cc1C | 4.0 | 6.0 | 4.7 | 3401 | 13.4 | -40.0 | 4.6 |
| O=C(c1ccccc1)C(CN1CCCCC1)c1ccccc1 (stereo not given) | 8.9 | 6.5 | 6.1 | 2805 | nt | 19.2 | 11.3 |

Screening results as filed in PubChem BioAssay.
